Screening results (PubChem)
FEN1 inhibitor – qHTS Assay for the Inhibitors of Human Flap endonuclease 1 (FEN1); AID 588795, 2011; P39748; Recombinant FEN1 flap cleavage, fluorescence, 15 min; 390,000 tested, 0.35% active; Potency, µM (highest dose often 114 µM), without a hit: at the top dose activity change, negative = inhibition, actives largely listed as inhibitors; further: nearly all actives have a fitted effect of over 65% in size
Target sequence (P39748 whole entry, looked up): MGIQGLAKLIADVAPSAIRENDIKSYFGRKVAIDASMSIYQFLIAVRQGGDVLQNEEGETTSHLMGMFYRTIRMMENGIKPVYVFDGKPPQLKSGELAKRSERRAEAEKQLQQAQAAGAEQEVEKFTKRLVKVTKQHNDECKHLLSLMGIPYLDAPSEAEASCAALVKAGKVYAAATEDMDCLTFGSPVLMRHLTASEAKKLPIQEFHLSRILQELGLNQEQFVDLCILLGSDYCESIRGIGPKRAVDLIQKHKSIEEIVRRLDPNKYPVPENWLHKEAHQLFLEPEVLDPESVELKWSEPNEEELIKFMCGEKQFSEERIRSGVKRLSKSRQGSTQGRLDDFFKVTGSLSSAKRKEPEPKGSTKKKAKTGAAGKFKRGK
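In this screen, 50 nM flap DNA substrate was added to 10 nM FEN1 pretreated with compound for 15 min at room temperature; cleavage was followed with reads at 0 and 15 min, and Hill fitting gave concentration–response parameters.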
N370S GC – qHTS Assay for Inhibitors and Activators of N370S glucocerebrosidase as a Potential Chaperone Treatment of Gaucher Disease; Lysosomal acid glucosylceramidase (Homo sapiens), P04062; N370S GC spleen homogenate, 4MU-glucoside fluorescence; Potency, µM (titrated, usually from 59.4 µM), for the others: top-dose activity change, negative = inhibition, actives largely listed as inhibitors; 330,000 tested, 0.092% active; AID 2101, 2009;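 further: 0% = full enzyme activity and -100% = no enzyme basal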
An asterisk follows results filed as active; ? = inconclusive; . = no result given; & = joins results of further samples; [ ] = dose if it differs, or a comment. The call rests on the fitted dose curve; in most records, active means well fitted curve in the direction sought with a large enough effect; inconclusive means small, poorly fitted or top-dose-only effect, or another doubt; inactive means no such curve, though single readings can be large; an effect the other way counts as inactive or inconclusive. Unless noted, on the % scale 0 is the no-effect control and ±100 the full control effect; potency means the concentration at half of the fitted maximal effect. The list is partial, and most or all hits are left out here.

1: O=C(COC(=O)c1nc(-c2ccccc2)n(-c2cccc(C(F)(F)F)c2)n1)NCc1cccs1
2: O=C(Nc1ccc(N2CCOCC2)cc1)c1cc2ccccc2o1
3: CN(c1ccccc1)S(=O)(=O)c1ccc(C(=O)NNC(=O)c2ccccc2F)cc1
4: CC#C[C@]1(O)CC[C@H]2[C@@H]3CCC4=CC(=O)CCC4=C3[C@H](c3ccc(N(C)C)cc3)C[C@@]21C
5: CC(Oc1ccc(-c2nccc(-c3ccccn3)n2)cc1)C(=O)NN (configuration not stated)
6: O=C(COc1cccc(Cl)c1Cl)NC1CC1
entry no.	1	2	3	4	5	6
FEN1 inhibitor	-9%	-9%	8%	.	-8%	-11%
N370S GC	2%	4%	.	-11%	-11%	.

7: COc1ccccc1C(=O)CSc1nnc(-c2ccco2)o1
8: NC(=O)C1CCCN(S(=O)(=O)c2ccc(Br)cc2)C1 (configuration not stated)
9: Cc1cccc(NC(=O)NN2CCN(C)CC2)c1C
10: O=C(C1CC(=O)N(c2ccc3c(c2)OCCO3)C1)N1CCCC(C(F)(F)F)C1 (configuration not stated)
11: Cc1cc(C(=O)NCCCN2CCN(C3CCCCC3)CC2)n(-c2ccccc2)n1
12: CCCc1nnc(NC(=O)CCC(=O)NC2CCCc3ccccc32)s1 (configuration not stated)
entry no.	7	8	9	10	11	12
FEN1 inhibitor	17%	-4%	-9%	4%	-14%	0%
N370S GC	?	-11%	-9%	-15%	1%	7%

13: COc1ccccc1OCC(=O)Nc1ccc(Cl)cc1
14: COC(=O)CN=C1OC(=O)N2C(=O)C3=C4C(C[C@H]5C(=O)N(c6ccccc6)C(=O)[C@H]5[C@H]4[C@@]12Cc1ccccc1)[C@H]1C(=O)N(c2ccccc2)C(=O)[C@H]1[C@H]3C (some centres not stated)
15: Cc1cc(O)cc(C)c1Cl
16: CC(=O)N1CCN(c2ccc([N+](=O)[O-])c(NCC3CCCO3)c2)CC1 (configuration not stated)
17: CCOc1ccc(C(=O)CN2CCN(S(=O)(=O)c3ccc(Cl)cc3)CC2)cc1
18: Nc1nnc(-c2ccc(Cl)cc2Cl)s1
entry no.	13	14	15	16	17	18
FEN1 inhibitor	0%	.	1%	-11%	9%	0%
N370S GC	?	-14%	-3%	-15%	2%	?

19: Cc1ccc(NC(=O)CCSc2nnc(-c3ccco3)o2)cc1
20: CCCNC(=O)COc1ccc(S(=O)(=O)Nc2ccc(C)cc2)cc1
21: Fc1ccc2c(Cl)c(-c3nnc(-c4cccs4)o3)sc2c1
22: CC(C)C(c1nnnn1Cc1ccc(F)cc1)N1CCN(c2ccc(O)cc2)CC1 (configuration not stated)
23: CC(C)C[C@H]1C(=O)N2CCC[C@@H]2[C@]2(O)O[C@](NC(=O)[C@@H]3C=C4c5cccc6[nH]c(Br)c(c56)C[C@H]4N(C)C3)(C(C)C)C(=O)N12
24: CC(=O)OCC(=O)[C@@]1(O)[C@H](C)C[C@@H]2[C@H]3CCC4=CC(=O)C=C[C@]4(C)[C@]3(F)[C@@H](O)C[C@@]21C
entry no.	19	20	21	22	23	24
FEN1 inhibitor	5%	-1%	-3%	6%	.	.
N370S GC	15%	0%	-15%	?	-3%	1%[21.6 µM]

25: CCN(CC1CCCO1)C(=O)CCc1nnc(CCc2ccc(OC)cc2)o1 (configuration not stated)
26: Cc1cc(-c2ccccc2)nc(SCC(=O)N2CCCC2)n1
27: CC(C)N(Cc1ccccc1)C(=O)CN1C(=O)NC(Cc2ccccc2)(c2ccccc2)C1=O (configuration not stated)
28: COc1ccccc1OCCOC(=O)Nc1ccccc1
29: O=c1[nH]cnc2cc(Cl)ccc12
30: C=CCOc1ccc(C2C(C#N)=C(N)N(Nc3ccccc3)C3=C2C(=O)CC(C)(C)C3)cc1OC (configuration not stated)
entry no.	25	26	27	28	29	30
FEN1 inhibitor	2%	1%	5%	-5%	6%	2%
N370S GC	6%	3%	0%	4%	2%	11%

31: CCCn1c(C)nnc1SCC(=O)NC1CCCCC1
32: CCNc1nc(CSc2ccccc2)nc2sc(C)c(C)c12
33: O=C(CCC(=O)c1ccc(Br)cc1)Nc1cccc(C(F)(F)F)c1
34: Cn1c(=O)c2c(nc(Cl)n2Cc2ccc(Cl)c(Cl)c2)n(C)c1=O
35: COCCOC(=O)C1=C(C)NC(C)=C(C(=O)OC(C)C)[C@H]1c1cccc([N+](=O)[O-])c1
36: CC(NC(=O)c1ccco1)C(=O)OC(C)C(=O)NCc1ccccc1 (configuration not stated)
entry no.	31	32	33	34	35	36
FEN1 inhibitor	-6%	-5%	2%	5%	.	2%
N370S GC	-19%	4%	.	10%	5%[21.6 µM]	5%

37: O=C(NCCc1cnccn1)C1CCC(=O)N(Cc2ccc(Cl)cc2)C1 (configuration not stated)
38: COc1ccc(CCNC(=O)CCc2nnc(Cc3ccc4c(c3)OCO4)o2)c(OC)c1
39: O=C(NCc1ccco1)NCC(F)(F)F
40: CCN(Cc1ccccc1)C(=O)C1CCN(c2ncnc3c2nc2n3CCCCC2)CC1
41: N#Cc1cc(O)c(-n2nnc3ccccc32)cc1C#N
42: CC(=O)c1cccc(NC(=S)NNC(=O)c2ccco2)c1
entry no.	37	38	39	40	41	42
FEN1 inhibitor	-3%	-1%	-3%	-8%&-4%	14%	-1%
N370S GC	1%	-1%	-1%	-17%	-18%	-5%

43: CC1=NCCN1S(=O)(=O)c1cc(Cl)ccc1Cl
44: CC(=O)c1ccc(S(=O)(=O)Nc2c(C)nn(C)c2C)cc1
45: CCn1cc(/C=C(\NC(=O)c2ccccc2F)C(=O)NCCCn2ccnc2)c2ccccc21
46: CCOCCCNC(=O)CN1C(=O)c2cccc3cccc1c23
47: O=C(NC(=S)Nc1cccc2c(O)cccc12)c1cccc(Br)c1
48: O=C1c2ccccc2C(Nc2ccc(F)c(Cl)c2)N1Cc1ccco1 (configuration not stated)
entry no.	43	44	45	46	47	48
FEN1 inhibitor	-4%	-9%	15%	11%	-1%	-5%
N370S GC	-18%	1%	0%	-13%	-5%	13%

49: Cc1cccc(-c2nc3c(c(SCc4ccccc4Cl)n2)Cc2c(CO)cnc(C)c2O3)c1
50: Cc1ccc(S(=O)(=O)N2CC(C)C(=O)CC2C)cc1 (configuration not stated)
51: Cc1cc(C)n2ncc(C(=O)Nc3ccc4c(c3)OCO4)c2n1
52: Cc1nnc(NC(=O)CSc2nnc(NC(=O)C(C)(C)C)s2)s1
53: O=C(NC(=S)N1CCN(c2ccc([N+](=O)[O-])cc2)CC1)c1ccco1
54: CCOc1ccc2[nH]c(=O)c(CN(Cc3cccnc3)C(=O)Nc3ccccc3OC)cc2c1
entry no.	49	50	51	52	53	54
FEN1 inhibitor	18%	12%	14%	2%	-6%	-6%
N370S GC	.	1%	?	0%	-6%	-24%

55: CCC(=O)Nc1nc(C)c(-c2csc(Nc3cccc(C(=O)O)c3)n2)s1
56: NNc1nc(-c2ccccc2)c2cc(Cl)ccc2n1
57: Cc1ccc2nc(SCC(=O)c3c(N)n(C)c(=O)n(C)c3=O)[nH]c2c1
58: CCOc1cc(/C=N/NC(=O)c2ccc(-c3csc(Nc4ccc(C)cc4)n3)cc2)ccc1OCC(=O)O
59: O=C(c1ccc([N+](=O)[O-])cc1)N1c2ncnn2C2(CCCCC2)[C@@H]2CCCC[C@@H]21
60: CCOc1ccc(OCC)c(S(=O)(=O)N2CCOCC2)c1
entry no.	55	56	57	58	59	60
FEN1 inhibitor	-6%	-5%	9%	50µM*	0%	4%
N370S GC	22%	-5%	0%	-8%	.	21%

61: CC1CCCN(CC(=O)Nc2ccc(S(=O)(=O)NC3CCCCC3)cc2)C1 (configuration not stated)
62: Cn1c(SCc2nc(-c3ccc(Cl)cc3)no2)nnc1-c1ccccc1
63: O=C(CN(CC1CCCO1)C(=O)CNS(=O)(=O)c1ccc(Cl)cc1)NCC1CCCO1 (configuration not stated)
64: CCOc1ccc(C2=Nn3c(nnc3-c3ccco3)SC2)cc1
65: COc1cc(S(=O)(=O)Nc2ccccc2N2CCCCC2)ccc1NC(C)=O
66: CC1CCCN(S(=O)(=O)c2cc(C(=O)NCCc3ccccc3)n(C)c2)C1 (configuration not stated)
entry no.	61	62	63	64	65	66
FEN1 inhibitor	-2%	-5%	7%	-2%	12%	-9%
N370S GC	-23%	?	-1%	11%	.	.

67: Cc1c(/C=N\NC(=O)c2ccc([N+](=O)[O-])cc2)cnn1C
68: O=C(NCc1ccccn1)Nc1ccc(Cl)c(Cl)c1
69: O=C(Nc1ccc(Cl)cc1)c1nc[nH]c1C(=O)N1CCc2ccccc2C1
70: Cc1c(NC(=S)NC(=O)C(C)(C)C)c(=O)n(-c2ccccc2)n1C
71: CC1=C(C(=O)Nc2ccccc2)C(c2cccn2C)n2ncnc2N1 (configuration not stated)
72: CCOc1cc(C(=O)N(C)Cc2cc3ccccc3[nH]c2=O)cc(OCC)c1OCC
entry no.	67	68	69	70	71	72
FEN1 inhibitor	-3%	3%	2%	5%	18%	1%
N370S GC	-19%	8%	.	1%	.	0%

73: O=C1CCc2cc(S(=O)(=O)N3CCC(C(=O)NC4CCCC4)CC3)ccc2N1
74: Cc1cc(C(=O)OCC(=O)Nc2ncc(C(F)(F)F)cc2Cl)c(C)o1
75: CCOc1ccccc1CN1CCN(Cc2nc3c(s2)CCCC3)CC1CCO (configuration not stated)
76: COc1ccc(/C=N/NC(=O)CSCC(=O)Nc2ccccc2)cc1
77: CC1=C/C(=C\c2ccc(Br)o2)C(=O)O1
78: COc1ccc(CN(C(=O)c2cccs2)C(C(=O)NC2CCCCC2)c2ccc3ncccc3c2)cc1 (configuration not stated)
entry no.	73	74	75	76	77	78
FEN1 inhibitor	-18%	-4%	-11%	-6%	?	-10%
N370S GC	5%	-8%	8%	-12%	-4%	2%

79: CC(C)NS(=O)(=O)c1ccc(OCC(=O)NCc2ccco2)cc1
80: Cc1cccn2c(=O)c(C=NCc3ccccc3)c(NCCO)nc12
81: Cc1ccc(OCc2nc(-c3ccc(C(=O)N4CCN(c5ccccc5)CC4)cc3)oc2C)cc1
82: CCCn1c(SCC(=O)Nc2ccc3c(c2)OCCO3)n[nH]c1=O
83: COc1ccc(/C(N)=N/OC(=O)C2CCCCC2)cc1
84: COCCCn1c(SCC(=O)NC2CCCC2)nnc1-c1cccs1
entry no.	79	80	81	82	83	84
FEN1 inhibitor	0%	4%	-10%	0%	-17%	-2%
N370S GC	-7%	4%	.	2%	-9%	-11%

85: C=CCOC(=O)C1=C[C@H](C2CCCCC2)[C@@H](CCCO)[C@H](OCC)O1
86: CCOC(=O)c1c(NC(N)=O)nc2n1CCC2
87: Cc1[nH]c2ccccc2c1C1(O)C(=O)Nc2ccc(Cl)cc21 (configuration not stated)
88: Cc1cccc(NC(=O)c2ccc(NCC3CCCO3)c([N+](=O)[O-])c2)n1 (configuration not stated)
89: Cn1nc(C(C)(C)C)c(NC(=O)c2ccc(F)cc2)c1C(C)(C)C
90: C=CCn1c(SC(CCO)C(=O)NCc2ccco2)nc2sc3c(c2c1=O)CCC3 (configuration not stated)
entry no.	85	86	87	88	89	90
FEN1 inhibitor	-2%	16%	-15%	-11%	1%	5%
N370S GC	-2%	10%	.	-4%	5%	3%
